# CDC25B-CDK2 inh – primary biochemical HTRF screen for blockers of M-phase inducer phosphatase 2 binding to CDK2/cyclin A. P30305+P24941. HTRF CDC25B-CDK2/CyclinA binding, anti-His/anti-Flag; hits give high values. z-score (test concentration not listed). actives 0.72% (n = 94,000). AID 1259370, 2018;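 further: score is relative to mean and SD of negative controls; strong numbers were not always called active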
# TAR Tat displ – TAR RNA-Tat peptide displacers, HIV-1, primary screen, biochemical, FRET, FAM/TAMRA-labeled Tat; HIV-1 TAR RNA, Tat peptide displacement FRET; hits give high values; z-score (test concentration not listed); actives 0.6% (n = 100,000);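 further: score is relative to mean and SD of negative controls; some compounds called inactive have numbers as strong as hits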
# * marks the source's active call; other numbers are inactive results; / = not tested or not shown; & = joins results of further samples.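 How the source made its calls: active means z-score from 3 up in half or more of its runs; inactive means the rest.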
SMILES,CDC25B-CDK2 inh,TAR Tat displ
C=CCNC(=O)CN1C(=O)c2ccccc2S1(=O)=O,-0.68,0.96
CCc1ccc(C2CC(=O)Nc3c2c(C)nn3-c2nncc(-c3ccc(F)cc3)n2)cc1 (stereo not drawn),-1.4,1.6
CN(C(=O)Nc1cn(C)c(=O)c2ccccc12)c1ccccc1Cl,/,2
Cc1oc(-c2ccccc2F)nc1CSc1nnc(C)n2c1cc1occc12,/,-1.5
NC(=S)NNC(=O)C12CC3CC(CC(C3)C1)C2,-0.68,/
Cc1nn2c3c(cnc2c1-c1ccccc1)C(=O)CC(/C=C/c1ccccc1)C3 (stereo not drawn),-0.68,1.1
COC(=O)c1cc(S(=O)(=O)Nc2ccc(Br)c(C)c2)cn1C,0.1,-1
CC(CCC(=O)O)[C@H]1CC[C@H]2[C@@H]3CC[C@@H]4C[C@H](O)CC[C@]4(C)[C@H]3C[C@H](O)[C@]12C (stereo partly drawn),/,1.2&1.7
C=CCSc1ncc(Cl)c(C(=O)Nc2nc(C)c(C(=O)OCC(C)C)s2)n1,-0.72,1
Cc1ccc(C(=O)C2C(c3ccc(Cl)cc3)NC(=O)NC2(O)C(F)(F)F)cc1 (stereo not drawn),-0.86,/
COc1ccc(/C=C/c2cc(O)cc(O[C@@H]3O[C@H](CO)[C@@H](O)[C@H](O)[C@H]3O)c2)cc1O,/,0.87
COc1cc(OC)nc(N)n1,-1.5,/
CCc1ccc2oc(C(=O)N(Cc3cccs3)C3CCS(=O)(=O)C3)cc(=O)c2c1 (stereo not drawn),0.47,0.72
O=c1c2ccccc2c2ccccc2c(=O)n1-c1ccccc1,-0.94,/
CN1C(C(=O)N2CCC(C(N)=O)CC2)=CC(c2ccc(F)cc2)=NS1(=O)=O,-2.9,1.1
CCOC(=O)C1=C(C(F)(F)F)Nc2nnnn2C1c1ccc(Cl)cc1 (stereo not drawn),/,-0.02
CCCN(CCC)C(=O)c1sc2nc3n(c(=O)c2c1C)CCCC3,/,1.6
COc1ccc(-c2c(C(=O)O)oc(=O)c3ccccc23)cc1,-0.78,-0.67
Cn1c(-c2ccccc2)cc(O)c(C(=N)c2ccccc2)c1=O,0.33,/
O=C(NCc1cccs1)c1cc2c(s1)-c1ccccc1OC2,-1.1,1.6
CC(C)Cn1c(=O)[nH]c2c(c1=O)C(C)(C)Cc1ccccc1-2,-2,1.4
NC(=O)CN1N=C(c2ccccc2F)c2cc(Cl)ccc2S1(=O)=O,/,0.65
Cc1nc2nc(-c3ccccc3)nn2c(C)c1Cl,-2.5,0.7
CC(=O)OCC1=C(C(=O)O)N2C(=O)[C@@H](NC(=O)CSc3ccncc3)[C@H]2SC1,/,1.4
Cc1cc(Nc2ccccc2F)n2nc(Cc3ccccc3)nc2n1,0.6,2.5
CCn1nccc1C(=O)NC1C(=O)N2C(C(=O)O)=C(COC(C)=O)CSC12 (stereo not drawn),-1.9,1.3
COc1ccc(OC)c(N2C(=O)c3cccnc3C2Nc2cccc(Cl)c2)c1 (stereo not drawn),/,0.87
Cc1noc2ncnc(N3CCCC(C(=O)N4CCCc5ccccc54)C3)c12 (stereo not drawn),/,0.44
CNC(=O)c1ccc(N2CCSc3ncccc32)s1,/,0.74
COc1ccc(-c2noc(CSc3nnc(-c4ccncc4)n3-c3ccc(F)cc3)n2)cc1,2,0.91
COc1cccc(-c2n[nH]c3c2C(c2ccccc2F)NC3=O)c1 (stereo not drawn),-0.61,0.99
O=C(NC1CCCC1)c1nnc(-c2ccc3c(c2)OCO3)o1,-1.4,1.7
Cn1c(=O)c2c(SCC(=O)OCc3ccccc3)nc(-c3cccs3)nc2n(C)c1=O,0.14,/
CCn1c(=O)n(CC)c2cc(N3CCCC3)c(NC(=O)c3sc4ccccc4c3Cl)cc21,-1.1,-0.2
CC(C)Cn1cc(NC(=O)NCCCN2CCCC(C)C2)c2ccccc2c1=O (stereo not drawn),/,1.2
CC1CCN(c2nn3c(=O)c(C(=O)NC(C)C)cnc3s2)CC1,/,-0.1
CCCNc1nc(NCc2ccccc2)c2cnn(C)c2n1,/,-0.61
C/C(=C\C#N)NC(=O)c1nccnc1C(=O)O,-1.7,/
CCCS(=O)(=O)c1nc(S(=O)(=O)c2ccc(C)cc2)c(NCCCN2CCOCC2)s1,0.23,-2.2
CCCS(=O)(=O)N1CCCc2ccc(NS(=O)(=O)c3cc(C)c(C)cc3OC)cc21,/,0.58
O=C1c2cccnc2C(=O)N1Cc1ccc(S(=O)(=O)NCc2ccc(Cl)cc2)cc1,/,0.44
Cc1cccc(S(=O)(=O)Nc2ccc3c(c2)N(S(C)(=O)=O)CCC3)c1,/,0.6
O=C(O)c1cccnc1SC1CC(=O)N(c2ccccc2)C1=O (stereo not drawn),-1.4,1.4
COc1ccc(-c2cc3c4c(C)n(Cc5ccccc5)c(C)c4c(C)nn3c2)cc1,-1.8,-0.42
CC1=C(C(=O)O)N2C(=O)C(NC(=O)c3ccn(C)n3)C2SC1 (stereo not drawn),-1.6,1.6
Cc1nn(-c2ccccc2)c(C)c1C(=O)Nc1ccc2c(c1)OCO2,-1.4,/
COc1ccccc1C1CC(c2cccnc2)Nc2nnnn21 (stereo not drawn),/,1
CSc1nn(Cc2cccc(C)c2)c(N)c1S(=O)(=O)c1ccccc1,/,0.65

# 3 entries out of the list, ordered by count of non-hydrogen atoms, falling.
SMILES,CDC25B-CDK2 inh,TAR Tat displ
O=C1c2cccnc2C(=O)N1Cc1ccc(S(=O)(=O)NCc2ccc(Cl)cc2)cc1,/,0.44
Cc1nn(-c2ccccc2)c(C)c1C(=O)Nc1ccc2c(c1)OCO2,-1.4,/
O=C(O)c1cccnc1SC1CC(=O)N(c2ccccc2)C1=O (stereo not drawn),-1.4,1.4

# Next compounds follow.
SMILES,CDC25B-CDK2 inh,TAR Tat displ
Cc1c(Cl)cccc1NC(=S)NNC(=O)CC1NCCN(Cc2ccccc2)C1=O (stereo not drawn),0.95,/
Cc1cccc(-c2noc(CN(C(=O)c3cccc(Br)c3)C(C)C)n2)c1,-0.56,/
N#CC1C(=O)NC(N2CCN(c3ccccc3)CC2)=NC12CCCCC2 (stereo not drawn),-0.92,0.11
O=C(c1cc(-c2ccc(Br)cc2)n[nH]1)N1CCN(c2ccc(N3CCOCC3)nn2)CC1,/,2.6
Cn1c2c(c(=O)n(C)c1=O)C(c1ccc(-c3ccccc3)cc1)CC(=O)N2 (stereo not drawn),-1.7,0.56
COc1cc(CNCCSc2nnnn2C)ccc1OCc1ccc(C)cc1,-0.09,-2.5
CCOc1ccc(NC(=S)NC(C)(C)CC)cc1,-0.83,/
COc1ccc(N2CCN(C3CC(=O)N(c4cccc(Cl)c4)C3=O)CC2)cc1 (stereo not drawn),-1.1,/
CC(C)n1c(CN2CCOCC2)nc2ccccc21,-0.67,0.03
CCc1nnc(NC(=O)C2CCCN(c3ncnc4onc(C)c34)C2)s1 (stereo not drawn),/,-0.93
CN1CCN(c2ccc3nnc(CCC(=O)NCc4ccc5c(c4)OCO5)n3n2)CC1,/,0.17
CC(C)CCNc1nc2c([nH]1)c(=O)n(C)c(=O)n2C,-0.57,1.1
CCC[C@@H](C)C[C@H](C)C[C@H](C)C(=O)/C=C(\O)[C@H](C)C[C@H](C)C/C=C/[C@@H](C)[C@@H](O)[C@@H](C)[C@@H](O)C[C@@H]1CC[C@@](C)([C@H]2CC[C@@](C)([C@@H](C)O)O2)O1,/,1.6
CC(C)c1onc(C(=O)N2CCC(C(N)=O)CC2)c1[N+](=O)[O-],-1.9,0.93
COC(=O)c1ccc(N2C(=O)CC(N3CCSCC3)C2=O)cc1 (stereo not drawn),-0.64,/
CCc1nnc(NC(=O)c2cc(=O)c3cc(C)c(C)cc3o2)s1,1.3,0.7
CCc1nnc2c(Nc3ccc4c(c3)OCO4)nc3ccccc3n12,/,0.34
Cc1cc(C)n(CC(=O)n2c3ccccc3c3ccccc32)n1,0.59,-0.46
COc1cnc(CSc2ncccn2)cc1OCC(=O)Nc1ccc(F)cc1F,/,1.9
CCOC(=O)/C(C#N)=C/Nc1cc(F)ccc1C,-0.56,/
COc1ccc2c(c1)CC(NC(=O)N1CCN(Cc3ccc4c(c3)OCO4)CC1)CO2 (stereo not drawn),/,1.1
COC(=O)c1c(C)[nH]c(C)c1/C=C1\C(=O)Nc2ccccc21,-2.2,/
COc1ccc2cc(CCNC(=O)c3ccc(Br)o3)c(=O)[nH]c2c1,-3,/
COc1cccc(-c2cn3nc(C4CC4)sc3n2)c1,-2.5,0.07

# Compound profiles, from the list above.
# `Cc1c(Cl)cccc1NC(=S)NNC(=O)CC1NCCN(Cc2ccccc2)C1=O` (stereo not drawn) is listed as CDC25B-CDK2 inh = 0.95; TAR Tat displ = /
# `CCn1c(=O)n(CC)c2cc(N3CCCC3)c(NC(=O)c3sc4ccccc4c3Cl)cc21` is listed as CDC25B-CDK2 inh = -1.1; TAR Tat displ = -0.2
# `Cc1nn2c3c(cnc2c1-c1ccccc1)C(=O)CC(/C=C/c1ccccc1)C3` (stereo not drawn) is listed as CDC25B-CDK2 inh = -0.68; TAR Tat displ = 1.1

# Later entries.
SMILES,CDC25B-CDK2 inh,TAR Tat displ
CC1CCN(CCNC(=O)c2nn(C)c3c2CCc2sccc2-3)CC1,/,1.2
CCOC(=O)/C=C/c1ccc(O)c(OC)c1,/,1.2
COc1ccc(Nc2cnnc3c(Cl)cccc23)cc1OC,/,0.84
CN(c1nnc(N)s1)C1CCCCC1,/,0.24
CCOc1ccc(N2C(=O)CC(N3CCN(c4ncccn4)CC3)C2=O)cc1 (stereo not drawn),0.02,0.36
O=C(CSc1ccc2nnc(-c3ccccc3)n2n1)NCc1ccc2c(c1)OCO2,-0.87,/
NC(=O)N1c2ccccc2C=Cc2ccccc21,-0.67,2
O=C(c1ccc(N2C(=O)CCS2(=O)=O)cc1)N1CCOCC1,-3.2,1.8
COc1ccc(C2C(C(=O)OC3CCCCC3)=C(C)NC3=C2C(=O)CCC3)cc1 (stereo not drawn),-3.1,1.9
COC(=O)c1cc(NS(=O)(=O)c2ccc(NCc3ccco3)c([N+](=O)[O-])c2)cc(C(=O)OC)c1,1.4,/
Cc1ccc(OCc2nc3cc(C)c(C)cc3[nH]2)cc1,-1.8,-0.29
O=C(Nc1ccccc1)N1CCN(Cc2ccccc2)CC1,4.1,/

# Four compounds drawn at random from those above, as already listed:
SMILES,CDC25B-CDK2 inh,TAR Tat displ
NC(=O)N1c2ccccc2C=Cc2ccccc21,-0.67,2
COC(=O)c1cc(NS(=O)(=O)c2ccc(NCc3ccco3)c([N+](=O)[O-])c2)cc(C(=O)OC)c1,1.4,/
O=C(Nc1ccccc1)N1CCN(Cc2ccccc2)CC1,4.1,/
CN(c1nnc(N)s1)C1CCCCC1,/,0.24

# Additional results
SMILES,CDC25B-CDK2 inh,TAR Tat displ
CC(Oc1ccc(F)cc1)C(=O)Oc1cccc(-n2cnnn2)c1 (stereo not drawn),-1.4,0.56
C=CCn1c(SCC(=O)c2[nH]c(C)c(C(=O)OC)c2C)nc2sc3c(c2c1=O)CCC3,-1.8,/
CC1(C)Cc2c(C#N)c(SCC(=O)N3CCCCC3)nc(N3CCOCC3)c2CO1,-0.32,-0.18
CCc1nnc(NC(=O)CSc2ccc3nnc(-c4ccncc4)n3n2)s1,-0.12,1.1
CC(NC(=O)c1ccco1)c1nc(-c2ccc3c(c2)ncn3C2CCCC2)no1 (stereo not drawn),/,0.97
CN1CCN(C(=O)c2noc3c2CCc2sccc2-3)CC1,/,0.98
CCCCN(CCCC)CCn1cnc2c([nH]c3ccc(OC)cc32)c1=O,-0.74,2.2
CC1=C(C(=O)OCCc2ccccc2)C(c2ccc(N(C)C)cc2)C2=C(CCCC2=O)N1 (stereo not drawn),-1,/
COc1ccc(OC)c(NS(=O)(=O)c2ccc3c(c2)NC(=O)CC(=O)N3)c1,-1.8,2.2
Cc1ccc(-c2ccc(=O)[nH]n2)cc1S(=O)(=O)Nc1ccc(Br)cc1,-2.7,2.2
CC1=C(c2ccc(Cl)cc2)S(=O)(=O)NC1=NC1CCN(Cc2ccccc2)CC1,-3,1.4
O=C(Nc1ccccc1Br)N1CCC(CN2CCOCC2)CC1,/,1.2

# Taken from above for reference:
SMILES,CDC25B-CDK2 inh,TAR Tat displ
COc1ccc(OC)c(NS(=O)(=O)c2ccc3c(c2)NC(=O)CC(=O)N3)c1,-1.8,2.2
Cc1ccc(-c2ccc(=O)[nH]n2)cc1S(=O)(=O)Nc1ccc(Br)cc1,-2.7,2.2
CC1=C(c2ccc(Cl)cc2)S(=O)(=O)NC1=NC1CCN(Cc2ccccc2)CC1,-3,1.4
O=C(Nc1ccccc1Br)N1CCC(CN2CCOCC2)CC1,/,1.2

# More records follow:
SMILES,CDC25B-CDK2 inh,TAR Tat displ
CCN(CC)c1c(S(=O)(=O)c2ccc(OC)cc2)cnc2ccc(Cl)cc12,-1.7,1.6
CC(C)Cn1cc(NC(=O)NC(C)C)c2ccccc2c1=O,/,0.84
Cc1cc(C)c(C(N)=O)c(SCC(=O)c2ccc(Cl)cc2)n1,-0.7,1.5
CCCCN(C1CCN(C)CC1)S(=O)(=O)c1ccc(-c2cc(C(F)(F)F)on2)s1,/,2
N#C/C(=C\c1cc(Cl)cc(Cl)c1O)C(N)=S,-2.1,/
COc1ccccc1N1CCN(c2cc(C)nc(-n3cc([N+](=O)[O-])cn3)n2)CC1,/,0.7
Cc1cc(C)c(-c2n[nH]c3c2C(c2ccccc2F)N(CCO)C3=O)c(O)c1 (stereo not drawn),-1.3,2.5
Cc1cc(N2C(=O)CCS2(=O)=O)ccc1S(=O)(=O)N1CCN(c2ccc(F)cc2)CC1,-1.6,-0.2
COc1ccc(C2=NC(c3ccncc3)=Nc3ccc(C(C)C)cc3N2)cc1OC,-1.4,0.65
Cc1noc2ncnc(NCCCN3C(C)CCCC3C)c12 (stereo not drawn),/,0.12
Cc1c(-c2nc(-c3ccccc3Cl)no2)nnn1-c1ccccc1,/,0.49
Cc1oc2ncnc(N3CCOCC3)c2c1C(=O)NC1CCCc2ccccc21 (stereo not drawn),/,2.3
COC(=O)c1csc(-n2nc(-c3ccc(OC)cc3OC)cc2C(F)(F)F)n1,/,0.89
